KCNQ2 inh: KCNQ2 channel blockers in CHO-K1 cells – cell-based, FluxOR thallium flux, B-score, primary screen (AID 2156) | 20 min; hits give low values; only compounds with negative scores are shown here; some inactives read as strong as hits | 310,000 compounds, 1.1% hits | B-score at 10 µM | O88943;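 active = fluorescence ratio B-score at most minus 3 library SDs, with starting brightness B-score within 2 library SDs, cut at about -5.5 in these data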
Target sequence (O88943 whole entry, looked up): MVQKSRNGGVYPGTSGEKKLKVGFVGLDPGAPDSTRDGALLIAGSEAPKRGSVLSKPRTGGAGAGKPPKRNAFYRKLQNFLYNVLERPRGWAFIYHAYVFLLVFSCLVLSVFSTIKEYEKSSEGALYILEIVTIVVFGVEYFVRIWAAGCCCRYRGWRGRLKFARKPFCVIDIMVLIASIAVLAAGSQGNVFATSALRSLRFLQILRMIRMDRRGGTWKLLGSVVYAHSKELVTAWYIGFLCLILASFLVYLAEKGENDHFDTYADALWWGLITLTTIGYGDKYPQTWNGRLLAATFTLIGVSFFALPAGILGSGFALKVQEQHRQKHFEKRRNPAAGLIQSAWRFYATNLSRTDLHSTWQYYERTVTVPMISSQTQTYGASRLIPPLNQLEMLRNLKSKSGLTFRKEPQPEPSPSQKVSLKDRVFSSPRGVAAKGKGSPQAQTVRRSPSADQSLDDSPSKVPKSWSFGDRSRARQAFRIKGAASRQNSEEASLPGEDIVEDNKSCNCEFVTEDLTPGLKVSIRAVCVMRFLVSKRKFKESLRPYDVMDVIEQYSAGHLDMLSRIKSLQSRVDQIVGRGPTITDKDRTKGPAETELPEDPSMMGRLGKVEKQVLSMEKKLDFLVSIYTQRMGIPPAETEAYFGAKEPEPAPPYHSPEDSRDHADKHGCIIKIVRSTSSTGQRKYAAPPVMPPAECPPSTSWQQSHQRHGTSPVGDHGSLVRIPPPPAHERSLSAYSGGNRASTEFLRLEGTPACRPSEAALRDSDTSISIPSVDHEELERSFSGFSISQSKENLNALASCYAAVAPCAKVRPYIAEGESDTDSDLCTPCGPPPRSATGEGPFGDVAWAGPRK
KCNQ2 inh baseline: recorded beside KCNQ2 inh, whose call it bears; B-score; measured here: initial fluorescence intensity artifact check;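 brightness before thallium and not channel activity; 0 = typical well and far values either way flag optical interference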
* = called active by the depositor; i = inactive. The list is partial. The share of hits here may be higher or lower than overall.

compound	KCNQ2 inh	KCNQ2 inh baseline
CC(C)CNC(=O)COC(=O)c1ccccc1OCC(=O)Nc1ccc(Br)cc1	i	1.54
COc1cccc(C(=O)Nc2cc(S(=O)(=O)N3CCCCC3)ccc2OC)c1	i	-0.49
COc1cc2c(cc1OC)C(c1cccc(Cl)c1)CC(=O)N2 (stereo not drawn)	i	0.22
COC(=O)Cn1c2ccc(OC)cc2c2nc(C)sc21	i	3.4
CCSc1nnc(NS(=O)(=O)c2ccc(C)cc2)s1	i	-0.98
O=C(CSc1nnc(COc2ccccc2)n1Cc1ccco1)c1ccc(F)cc1	i	-0.68
COCC(=O)NCc1ccc2c(c1)cc(C)n2C	i	1.17
COc1ccc(NC(=O)C(C)N2CCN(C)CC2)cc1 (stereo not drawn)	i	0.19
CCOC(=O)C1=C(C)NC2=C(C1c1ccc([N+](=O)[O-])cc1)S(=O)(=O)c1ccccc12 (stereo not drawn)	i	0.57
COc1ccc(C(=O)N2CCSC2=S)cc1OC	i	1.13

Compound profiles, as listed above:
CCOC(=O)C1=C(C)NC2=C(C1c1ccc([N+](=O)[O-])cc1)S(=O)(=O)c1ccccc12 (stereo not drawn) is entered as KCNQ2 inh = i; KCNQ2 inh baseline = 0.57
COc1ccc(NC(=O)C(C)N2CCN(C)CC2)cc1 (stereo not drawn) is entered as KCNQ2 inh = i; KCNQ2 inh baseline = 0.19
COC(=O)Cn1c2ccc(OC)cc2c2nc(C)sc21 is entered as KCNQ2 inh = i; KCNQ2 inh baseline = 3.4

Following part:
compound	KCNQ2 inh	KCNQ2 inh baseline
O=C(CSc1nc(-c2ccco2)cc(C(F)(F)F)n1)NCCCN1CCOCC1	i	0.05
Cc1cc(C)c(NC(=O)C2CCCN2CCO)c(C)c1 (stereo not drawn)	i	1.08
O=C(CNS(=O)(=O)c1cccs1)Nc1ccc2c(c1)OCCO2	i	-0.13
Cc1cccc(NC(=O)N(Cc2cc3cc(C)ccc3[nH]c2=O)CC2COCCO2)c1 (stereo not drawn)	i	-0.46
CCC1C(=O)CC(c2ccco2)NC1c1ccco1 (stereo not drawn)	i	-1
COc1ccc(-c2cnnn2-c2ccc([N+](=O)[O-])cc2)cc1	i	-0.06
O=C(NCCCn1ccnc1)c1ccc2c(c1)OCCO2	i	0.68
CC1CCN(S(=O)(=O)c2ccc(C(=O)Nc3ccccc3-c3nc4ccccc4[nH]3)cc2)CC1	i	0.23
O=C1N=C(N2CCOCC2)CS1	i	1.44
OCC1(CCc2ccccc2)CCCN(C/C=C/c2ccccc2)C1 (stereo not drawn)	i	-0.34
S=C(NC1CCCCC1)N1CCOCCOCCN(C(=S)NC2CCCCC2)CCOCCOCC1	i	0.37
Cc1ccc(S(=O)(=O)CCC(=O)O)cc1C	i	0.03
Cc1ccc(C(=O)Nc2nnc(CC(=O)N/N=C/c3ccncc3)s2)cc1	i	-3.33
COc1ccc(NC(=O)CSc2nnc(C3CC3)n2-c2ccccc2)cc1	i	-1.3
COc1ccc(NC(=O)c2ccccc2-c2ccccc2C(=O)O)cc1	i	-0.35
Clc1ccccc1CN1CCN(/N=C/C=C/c2ccco2)CC1	i	0.09
CCOC(=O)c1nc(C)nc(Sc2n[nH]c(-c3ccc(C(C)(C)C)cc3)n2)c1C	i	0.05
CCOC(=O)C1(Cc2ccccc2C(F)(F)F)CCN(C2CCC2)CC1	i	-0.06
COc1ccc(-c2nnc(S/C(=C/c3ccc(Cl)cc3)C(=O)O)o2)cc1	i	-0.04
O=C1OC(c2ccc(F)cc2)=N/C1=C\c1ccc(Br)o1	i	2.62

Pulled by structure from above (four):
compound	KCNQ2 inh	KCNQ2 inh baseline
O=C1OC(c2ccc(F)cc2)=N/C1=C\c1ccc(Br)o1	i	2.62
CCOC(=O)C1(Cc2ccccc2C(F)(F)F)CCN(C2CCC2)CC1	i	-0.06
Cc1ccc(S(=O)(=O)CCC(=O)O)cc1C	i	0.03
CCOC(=O)c1nc(C)nc(Sc2n[nH]c(-c3ccc(C(C)(C)C)cc3)n2)c1C	i	0.05

The results go on.
compound	KCNQ2 inh	KCNQ2 inh baseline
COC(=O)C(Cc1ccc(O)cc1)NC(=O)NC12CC3CC(CC(C3)C1)C2 (stereo not drawn)	i	-0.56
Cc1c(Nc2nc(C(F)(F)F)nc3ccccc23)c(=O)n(-c2ccccc2)n1C	i	0.57
COCCN1C(=O)N[C@@H](c2ccccc2)[C@H](C(C)=O)[C@H]1C	i	-0.05
COc1cccc(OC)c1C(=O)NCCOc1cc(C)cc(C)c1	i	1.76
CN1CCN(NC(=O)CN2C(=O)/C(=C/c3c(Cl)cccc3Cl)SC2=S)CC1	i	-0.65
Cc1c(C(=O)O)c2cc(O)ccc2n1-c1ccccc1	i	1.56
CN1CCN(C(=S)c2ccc(-c3cccc(Cl)c3Cl)o2)CC1	i	-1.32
COc1c2c(cc3c1C(CC(O)Cc1ccccc1)N(C)CC3)OCO2 (stereo not drawn)	i	0.56
Cc1ccc(-n2ncc3c(Nc4c(C)n(C)n(-c5ccccc5)c4=O)ncnc32)c(C)c1	i	1.77
CC(=O)N/N=C(\C)CC(=O)Nc1cccc2c1CCCC2	i	-0.54
CCNc1nc(NCC)nc(SCCOC(=O)COc2ccc(Cl)cc2Cl)n1	i	0.6
COc1cccc(Nc2nc(-c3cccs3)nc3ccccc23)c1	i	-1.59
COc1ccc(NC(=O)N(C2CCCCC2)C(C)c2ccco2)c(OC)c1 (stereo not drawn)	-8.15*	-1.24*
CCc1ccc(N(C(=O)c2csnn2)C(C(=O)NC2CCCCC2)c2ccncc2)cc1 (stereo not drawn)	i	1.1
Cc1ccccc1NC(=O)CN1C(=O)S/C(=C\c2ccc(-c3cccc(C(=O)O)c3C)o2)C1=O	i	0.73
COc1ccccc1-c1ccc(=O)n(CC(=O)NCc2ccco2)n1	i	0.03
O=S(=O)(c1ccc(S(=O)(=O)N2CCN(Cc3ccccc3)CC2)cc1)N1CCOCC1	i	0.03
CCN(CC)C(=O)c1cc(-c2ccccc2OC)on1	i	0.03
O=S(=O)(c1cccs1)N1CCCc2cccc(O)c21	i	0.07
CCn1nc(C)c(C(=O)Nc2cc(Oc3cc(C)cc(C)c3)cc([N+](=O)[O-])c2)c1C	-5.57*	-1.74*
C=CCn1c(SCC(=O)Nc2cc3oc4ccccc4c3cc2OC)nnc1-c1cnccn1	i	-1.18
COc1ccc(Cl)cc1NC(=O)CN1CCN(S(=O)(=O)N2CCC(C)CC2)CC1	i	-0.48
CCOC(=O)c1cc(NCc2cccs2)ccc1N1CCOCC1	i	0.72
CCN(CC)C(=O)C1=C(C)NC(=S)NC1c1cn(-c2ccccc2)nc1-c1ccc(Cl)cc1 (stereo not drawn)	i	1.94
NC(=O)[C@@H]1CCCCNc2c(F)cc([N+](=O)[O-])cc2C(=O)N[C@@H](CC(=O)O)C(=O)NCC(=O)N1	i	0.64
COc1cc(NC(=O)c2c(F)cccc2F)c(Cl)cc1Cl	i	2.48
Cc1ccnc2c1NC(=O)c1cccnc1N2C1CC1	i	-0.06
C=C(C)c1cccc(C(C)(C)NC(=O)Nc2ccc(C(N)=O)cc2)c1	i	-1.13
CC1CC=C2C(C#N)=C(N)C(C#N)(C#N)C(c3cccs3)C2C1 (stereo not drawn)	i	4.33
O=C(Nc1ccc([N+](=O)[O-])cc1)c1nc[nH]c1C(=O)NC1CCCCC1	i	3.62
Cc1ccc(S(=O)(=O)N(C)c2ccc(OCC(=O)N3CCCC(C(F)(F)F)C3)cc2)cc1 (stereo not drawn)	i	0.15
Cc1cc(C)c(OCC(O)CNC(C)(C)C)c(C)c1 (stereo not drawn)	i	0.76
CC1CC(C)CN(C(=O)CSC2=Nc3ccccc3C3=NC(Cc4c[nH]c5ccccc45)C(=O)N23)C1 (stereo not drawn)	i	-3.02
CCOC(=O)c1ccc(S(=O)(=O)n2c(CN3CCCCC3)nc3ccccc32)cc1	i	-0.08
CC(=O)N(NC(N)=O)C(C)CC(=O)C1C(C)C=CCC1(C)C (stereo not drawn)	i	-0.41
CCCc1nc2c(C)ccc(C)c2c(N)c1CC	i	-0.43
O=C(CSc1nnc(-c2cnccn2)n1Cc1ccco1)c1ccc(Cl)cc1	i	2.1
CCOc1ccccc1NC(=S)N1CCN(c2ccc(OC)cc2)CC1	i	-2.65
COc1ccc(-n2nnnc2SCC(=O)NC2CCCC2)cc1OC	i	-0.2
COC(=O)CSc1nc2cc3c(cc2cc1C)OCCO3	i	-1.52
COCC(=O)N/N=C(\C)CC(=O)NCc1ccco1	i	-0.06
COc1ccc(CNC(=O)CCCSc2ccccc2)cc1	i	0.69
O=C(COc1ccccc1F)NCc1ccc(-n2cccc2)cc1	i	-1.94
CC1CCCN(C(=O)Cn2c(=O)oc3ccccc32)C1 (stereo not drawn)	i	1.16
COc1cccc(OC)c1C(=O)NC(C)C12CC3CC(CC(C3)C1)C2 (stereo not drawn)	i	-0.11
COc1ccc(-n2c(C)cc(C(=O)Cn3nc(C(=O)O)c4ccccc4c3=O)c2C)cc1	i	1.37
CCc1nnc(NC(=O)c2ccc(S(=O)(=O)N3CCCCC3C)cc2)s1 (stereo not drawn)	i	1.05
CCOC(=O)c1cc(-c2ccc(Cl)cc2)nc2c1c(C)nn2CCC#N	i	2.25
C=CCNCCOc1cccc(Br)c1	i	1.24
CCOC(=O)C1=CSC2=NS(=O)(=O)CCN12	i	-0.62

The list goes on:
compound	KCNQ2 inh	KCNQ2 inh baseline
CCOc1ccc(NC(=O)CSc2nnnn2-c2ccc(C(N)=O)cc2)cc1	i	-0.33
CC(C)c1ccccc1OCC(=O)N1CCCCCCC1	i	0.61
COc1cccc(NS(=O)(=O)c2ccc3c(c2)NC(=O)C(C)S3)c1 (stereo not drawn)	i	0.04
CC1=C(C(=O)OCC(C)C)[C@]23C(=O)c4ccccc4[C@@]2(O1)OC(N)=C3C#N	i	-1.21
Cn1c(SCC(=O)NC2CC2)nnc1-c1ccccn1	i	0.01
CC(=O)Nc1ccc(OCC(O)CN2CCN(S(=O)(=O)c3ccc(NC(C)=O)cc3)CC2)cc1 (stereo not drawn)	i	0.72
CCC1CN(C(=O)NCc2cccc(OC)c2)c2ccccc2O1 (stereo not drawn)	i	-0.26
COc1ccccc1-c1ccc(Nc2cccc(C(F)(F)F)c2)nn1	i	-0.13
N#Cc1nc(-c2cccs2)oc1NCCc1ccccc1	i	1.46
O=c1cc(CN2CCN(c3ccc(F)cc3)CC2)nc2sccn12	i	1.75
CCc1ccc(N2CN=c3s/c(=C\c4ccccc4)c(=O)n3C2)cc1	i	-0.11
O=S(=O)(/C=C/c1ccccc1)NC1CCCCCCC1	i	-0.53
CCCCOC(=O)CSC1=C(C#N)C(c2cccnc2)C(C(=O)OCC)=C(c2ccccc2)N1 (stereo not drawn)	i	1.44
O=C(CCCCCNC(=O)N1CCn2c1nc1ccccc12)NCc1ccccc1Cl	i	0.06
O=C(CCN1C(=O)/C(=C/c2ccc(F)cc2)SC1=S)NCCCn1ccnc1	i	2.64
CC(=O)Nc1ccc(-c2ccnc(-c3ccc(NC(C)=O)cc3)n2)cc1	i	0.68
CN(CC(O)COCc1cccs1)C1CCCCC1 (stereo not drawn)	i	-0.84
CN(C)C(CNc1ccc(C(F)(F)F)cc1[N+](=O)[O-])c1ccccc1 (stereo not drawn)	i	-0.32
CCOC(=O)N1CCN(S(=O)(=O)c2ccc(C(=O)N(CCCN(C)C)c3nc4ccc(CC)cc4s3)cc2)CC1	i	1.74
CCOc1ccccc1NC(=O)CSc1nnc(Cc2ccc(OC)cc2)c(=O)n1N	i	-1.03
C=CCNC(=O)c1c(Br)cnn1-c1ccc(C)cc1	i	2
Cc1ccc(OCc2cc(C(=O)NCCc3cccnc3)no2)cc1C	i	-0.07
CCCCCCCCCCC[C@@H](C[C@@H]1OC(=O)[C@H]1CCCCCC)OC(=O)[C@H](CC(C)C)NC=O	i	-3.06
COc1ccc(CC(=O)OCC(=O)N(C)C2CCS(=O)(=O)C2)cc1OC (stereo not drawn)	i	0.38
Cn1c(SCC(=O)Nc2ccc(C(N)=O)cc2)nc2c(c1=O)SCC2	i	0.11
COc1ccc(-c2nc3cnccn3c2NCc2ccccc2)cc1SC1CCCCC1	i	0.01
CCOC(=O)Cn1c(CN(C)Cc2ccccc2)nc2c1c(=O)n(C)c(=O)n2C	i	0.44
COc1ccc2cc(C(=O)C3CCCN(C(=O)c4ccnn4C)C3)ccc2c1 (stereo not drawn)	i	-2.21
CCOC(=O)c1c(Nc2nc(C)c(C(=O)NC)s2)sc(C)c1C	i	-0.04
COC(=O)[C@H](CC(C)C)NC(=O)NC1CCCc2ccccc21 (stereo partly drawn)	-7.55*	0.4*
O=C(Nc1ccccc1)c1ccc(=O)n(Cc2ccc(F)c(F)c2)c1	i	0.17
O=C(CCc1ccc(S(=O)(=O)NCCc2ccccc2)cc1)NCc1ccco1	i	-0.74
O=C(CNC(=O)OCc1ccccc1)NC1CCCCNC1=O (stereo not drawn)	i	-1.03
CCN(CC)C(=O)c1cccc(C)c1	i	0.02
CCOc1ccc2nc(SC3CC(=O)N(c4ccc(OC)cc4OC)C3=O)sc2c1 (stereo not drawn)	i	-0.59
CCOC(=O)c1c(NC(=O)c2ccc(Cl)cc2)csc1C	i	1.41
O=C(CSc1nc2ccccc2nc1N1CCOCC1)Nc1ccccc1F	i	-1.04
Cc1ccccc1-c1cc(C(=O)N/N=C/c2cccnc2)c2ccccc2n1	i	-0.97

From PubChem BioAssay
